Screening data deposited in PubChem BioAssay by National Center for Advancing Translational Sciences (NCATS).
VACV mCherry inh = vaccinia inhibition (mCherry reporter). Vaccinia virus mCherry reporter infection, fluorescence; about a quarter of the inactives have no number. Potency, µM (titrated, usually from 36.5 µM), inactives show at the highest dose activity change, negative = inhibition, hits mostly inhibitors. 310,000 tested, 0.63% active; active = well fitted inhibition curve with a large enough effect; inconclusive = small, poorly fitted or top-dose-only effect; inactive = no such curve, though single readings can be large or run the other way; tested in A549 cells; note: nearly all actives have a fitted effect of over 35% in size; inactives centre near -10
Vaccinia Venus = inhibitors of vaccinia virus (Venus reporter); Vaccinia virus Venus reporter expression, fluorescence; 330,000 tested, 0.46% active; Potency, µM (top dose mostly 36.5 µM), without a hit: at the top dose activity change, negative = inhibition, usual class: inhibitors; active means well fitted inhibition curve with a large enough effect; inconclusive means small, poorly fitted or top-dose-only effect; inactive means no such curve, though single readings can be large or run the other way; tested in A549 cells; note: nearly all actives have a fitted effect of over 30% in size; inactives centre near -10
The depositor's hits bear a star; i = inactive; ? = inconclusive; / = no result given; [ ] = dose if it differs, or a comment. % is set by controls: 0 for no effect and ±100 for the full control effect; potency is the fitted concentration of half-maximal effect.

entry | canonical_smiles | VACV mCherry inh | Vaccinia Venus
1 | CCc1n[n+](CC(=O)c2ccccc2)c(N)s1 | -11% | -12%
2 | CC(C)Cc1nc2sc3c(=O)[nH]cnc3c2c2c1CCCC2 | -6% | -6%
3 | Cc1oc2ncn(C)c(=O)c2c1C(=O)N1CCN(c2cccc(C(F)(F)F)c2)CC1 | -23% | -16%
4 | Cc1cc2oc(=O)c(CC(=O)O)c(C)c2c2occ(-c3ccc(F)cc3)c12 | -14% | -5%
5 | O=c1c(Cl)c(N/N=C/c2ccc(Br)cc2)cnn1-c1ccccc1 | -18% | ?
6 | CN(C)S(=O)(=O)c1cccc(NC(=O)COc2ccccc2C(=O)Nc2ccccc2)c1 | ? | ?
7 | Cn1c(=O)n(C)c2cc(/C=C3/SC(=O)N(CC(=O)N4CCOCC4)C3=O)ccc21 | -15% | -5%
8 | O=S(=O)(NCC(c1ccco1)N1CCN(c2ccc(F)cc2)CC1)c1ccccc1 (stereo not given) | -12%[7.34 µM] | -6%[7.34 µM]
9 | C=CCSc1nnc(NC(=O)c2ccc(Cl)nc2)s1 | i | -10%
10 | CCC(=O)N1CCc2cc(Br)cc(S(=O)(=O)CCC(=O)NCc3ccc(Cl)cc3)c21 | -12% | 1%
11 | O=C(Nc1nonc1NC(=O)c1cccs1)c1cccs1 | ? | ?
12 | COc1cc(S(=O)(=O)Nc2ccccc2C)ccc1Cl | / | -12%
13 | COc1ccc(CC(=O)c2ccc(OC)c(OC)c2C)cc1OC | -18% | -22%
14 | CCCCOc1ccc(C(O)(CC)CCN2CCOCC2)cc1 (stereo not given) | -29% | -14%
15 | CC(C)(C)c1nnc2sc(SC/C(O)=C(\C#N)c3nc4ccccc4[nH]3)nn2c1=O | 9% | 15%
16 | O=C(CSc1nnc(-c2cccs2)o1)Nc1cccc(C(F)(F)F)c1 | -23% | -22%
17 | COc1ccc(Cn2c(-c3ccc(OC)cc3)n[nH]c2=S)cc1 | -1% | -4%
18 | CNC(=S)N/N=C/c1ccc(OCC(=O)Nc2c(C)cc(C)cc2C)c(OC)c1 | -19% | -13%
19 | Cn1c(SCC(=O)NCCC2=CCCCC2)nnc1C(F)(F)F | i | -10%
20 | COC1CC(N)C2OC(c3ccccc3)OCC2O1 (stereo not given) | -19% | -13%
21 | CCOC(=O)Cn1c(O)c(N=NC(=O)CNC(=O)Cc2ccccc2)c2ccccc21 | i | -13%
22 | N#Cc1ccc2sn(-c3ccccc3)c(=O)c2c1 | ? | -23%
23 | O=C(Nc1ccccc1C(=O)N1CCN(Cc2ccccc2)CC1)c1ccccc1 | -28% | -17%
24 | COc1ccc(C(=O)c2c(C)oc3ccc(O)cc23)c(OC)c1 | ? | -22%
25 | CS(=O)(=O)Nc1ccc(Cc2noc(-c3ccc4[nH]cc(CCN)c4c3)n2)cc1 | -15% | -2%
26 | CCCCn1c(N)c(N(CC)C(=O)CN2C(=O)NC(C)(c3ccccc3)C2=O)c(=O)[nH]c1=O (stereo not given) | -3% | -4%
27 | Cc1ccc(C)c(N2CCN(C(=O)CSc3ccsc3[N+](=O)[O-])CC2)c1 | -5% | 1%
28 | S=c1[nH]nc(-c2cccs2)n1/N=C/c1cn(-c2ccccc2)nc1-c1cccs1 | -7% | -13%
29 | CN(CC(=O)Nc1ccc(F)c(F)c1F)C(=O)/C=C/c1ccc(Cl)cc1 | -10% | 4%
30 | Cc1cc(C(=O)N2CCN(c3ccc(F)cc3)CC2)c2c(C)nn(-c3cccc(Cl)c3C)c2n1 | -19% | -26%
31 | Cc1ccccc1OCC1Cc2c(nc(N)c(C#N)c2N)O1 (stereo not given) | / | -24%
32 | Clc1nnc(N2CCCCC2)c2ccccc12 | i | -14%
33 | CCOc1ccccc1CNC(=O)Cn1c(=O)oc2ccccc21 | -6% | -4%
34 | CCOc1ccc(C(=O)NCCc2csc(-c3cccc(C)c3)n2)cc1 | -4% | -6%
35 | O=C(CCS(=O)(=O)c1ccc(Br)cc1)N1CCN(c2ccccc2)CC1 | / | -6%
36 | Cc1c(C(=O)Nc2cccc(S(=O)(=O)N3CCOCC3)c2)oc2ccc(Br)cc12 | i | -12%
37 | CNc1oc(-c2ccccc2F)nc1S(=O)(=O)c1ccc(C)cc1 | -20% | -22%
38 | CC(C)Cn1c(N)c(C(=O)COC(=O)c2ccccc2F)c(=O)n(C)c1=O | -14% | -3%
39 | CCOc1ccc(C(=O)C(C)OC(=O)Cn2c(C)csc2=O)cc1 (stereo not given) | i | -10%
40 | C/C(CC(C)(C)c1ccccc1)=N\NS(=O)(=O)c1ccccc1 | 6% | -11%
41 | N#C/C(C(=O)N1CCCC1)=C1/N=C(N)c2ccccc21 | i | 2%
42 | CCCCn1c(=O)[nH]c(=O)c2c1nc(-c1cccc(OC)c1)n2C | -21% | -13%
43 | Cc1ccc(NC(=S)NC2CC3CCCC(C2)N3Cc2cccs2)cc1 (stereo not given) | -19% | ?
44 | O=C(CCn1cnnn1)Nc1ccccc1F | i | -12%
45 | COC(=O)c1sccc1NC(=S)NCc1ccc(Cl)cc1 | -6% | -8%
46 | COC(=O)c1ccc(CNC(=O)COC(=O)C2CCC(C(C)(C)C)CC2)cc1 (stereo not given) | -11% | -4%
47 | CC1Cc2ccccc2CN1 (stereo not given) | i | -15%
48 | CCOc1ccc(CCNC(=O)COC(=O)c2ccc(S(=O)(=O)N3CCCC3)cc2)cc1OCC | -1% | -5%
49 | COc1ccc(CNC(=O)c2sc(=O)n(Cc3ccc(S(=O)(=O)N(C)C)cc3)c2C)cc1 | -18% | -11%
50 | CCOC(=O)Cc1csc(NS(=O)(=O)c2ccc(SC)cc2)n1 | -12% | -18%
51 | O=C(COc1ccc2c3c(c(=O)oc2c1)CCC3)N[C@@H](Cc1ccccc1)C(=O)O | 5% | -3%
52 | COc1ccc(CC(=O)N[C@@H](CCSC)C(=O)N2CCC3(CC2)NCCc2[nH]cnc23)cc1 | -11%[7.34 µM] | 0%[7.34 µM]
53 | COC(=O)[C@H](C)[C@H]1C[C@]1(C)[C@H](NC(=O)OCc1ccccc1)c1ccccc1 | -14% | -2%
54 | C#CCOc1ccc(C2CC(=O)Nc3c2c(C)nn3-c2nc(C)cc(C)n2)cc1 (stereo not given) | -5% | -21%
55 | COc1cccc(CN2CCC2(C)C(=O)Nc2ccc(C)cc2)c1F (stereo not given) | 18% | -4%
56 | Nn1c(SCC(=O)NCCC2=CCCCC2)nnc1-c1cccnc1 | -10% | -8%
57 | O=C(C[n+]1cccc(C(=O)Nc2ccccc2)c1)c1ccc(Cl)cc1 | -18% | -16%
58 | COc1ccccc1NC(=O)CSc1ccc2nnc(-c3ccncc3)n2n1 | 3% | -1%
59 | Clc1ccc2c(N/N=C/c3ccccc3Br)ccnc2c1 | -21% | -13%
60 | Cn1c(N)c(C(=O)N/N=C/c2ccccc2)sc1=S | ? | -17%

The listing continues.
entry | canonical_smiles | VACV mCherry inh | Vaccinia Venus
61 | CCOC(=O)c1c2c3c(cccc3[nH]c1=O)C(=O)c1ccccc1-2 | -11% | -5%
62 | COc1ccc(C(=O)Cn2cc([N+](=O)[O-])nc2C)cc1 | -3% | -5%
63 | Cc1ccc(S(=O)(=O)C2(S(=O)(=O)c3ccc(C)cc3)CC2)cc1 | -25% | -20%
64 | Cc1ccc(S(=O)(=O)NNC(=O)c2ccc(O)cc2)cc1 | -24% | -14%
65 | CCn1nc(C(=O)OCC(=O)c2ccc(F)cc2)c2ccccc2c1=O | 3% | -12%
66 | FC(F)(F)c1cccc(Cc2noc(CN3CCC(N4CCCCC4)CC3)n2)c1 | i | -6%
67 | Cc1ccc(NC(=O)CSc2nnnn2C2CC2)cc1S(=O)(=O)N1CCOCC1 | i | -14%
68 | C/C=C/C=C/C(=O)Nc1nccs1 | -8% | -5%
69 | COc1ccc(NC(=O)CN(C)C(=O)C2CC(=O)N(c3ccc4c(c3)OCCO4)C2)cc1 (stereo not given) | i | -14%
70 | Cc1ccc(SCc2noc(-c3c(C)noc3C)n2)cc1 | -2% | -6%
71 | N/C(=N\OC(=O)CCC1CCCC1)c1ccncc1 | -13% | -15%
72 | Cc1ccc(OCCNC(=O)[C@H]2O[C@@H](n3ccc(N)nc3=O)[C@H](O)[C@@H]2O)cc1C | 46%[activator] | -8%

Fetched one by one from the entries so far, 6 records:
entry | canonical_smiles | VACV mCherry inh | Vaccinia Venus
67 | Cc1ccc(NC(=O)CSc2nnnn2C2CC2)cc1S(=O)(=O)N1CCOCC1 | i | -14%
70 | Cc1ccc(SCc2noc(-c3c(C)noc3C)n2)cc1 | -2% | -6%
71 | N/C(=N\OC(=O)CCC1CCCC1)c1ccncc1 | -13% | -15%
62 | COc1ccc(C(=O)Cn2cc([N+](=O)[O-])nc2C)cc1 | -3% | -5%
69 | COc1ccc(NC(=O)CN(C)C(=O)C2CC(=O)N(c3ccc4c(c3)OCCO4)C2)cc1 (stereo not given) | i | -14%
61 | CCOC(=O)c1c2c3c(cccc3[nH]c1=O)C(=O)c1ccccc1-2 | -11% | -5%

Other results:
entry | canonical_smiles | VACV mCherry inh | Vaccinia Venus
73 | O=[N+]([O-])c1ccc(O)c(C=Nc2cccc3ncccc23)c1 | -16% | -20%
74 | COc1ccc(C(=O)Nc2cc(Cl)ccc2OC(=O)c2ccc(OC)cc2)cc1 | -15% | -17%
75 | Cc1ccc(CNCc2c(C(=O)O)c(C)n(Cc3ccc(C)cc3)c2C)cc1 | -5% | 6%
76 | COc1ccccc1Oc1ccccc1[N+](=O)[O-] | ? | -9%[7.34 µM]
77 | COc1ccc(S(=O)(=O)N2CCC3CC2c2cc(N4CCOCC4)ccc23)cc1 (stereo not given) | 0% | -18%
78 | O=C(CNC(=O)c1ccccc1Cl)NCC(c1cccs1)N1CCOCC1 (stereo not given) | -1% | -13%
79 | COc1ccc(Cc2nnc(SCc3nc4ccccc4c(=O)[nH]3)o2)cc1 | -13% | 0%
80 | CCCOc1ccc(C2c3c(-c4ccccc4O)n[nH]c3C(=O)N2CCCOCC)cc1OCC (stereo not given) | -10% | -17%
81 | CCOc1ccc(CCNC(=O)c2cn(C)c3ccc(S(=O)(=O)N4CCOCC4)cc3c2=O)cc1OCC | -23% | -14%
82 | Cc1ccc(C(c2c(C)[nH][nH]c2=O)c2c(C)[nH][nH]c2=O)cc1[N+](=O)[O-] | -20% | -8%
83 | CCOC(=O)N1CCN(C(=O)c2cc(COc3c(F)cccc3F)on2)CC1 | i | -14%
84 | CCCOC(=O)CN1C(=O)c2ccc(C(=O)OCCC)cc2C1=O | ? | -6%
85 | CCc1ccc(-n2c(=O)c3c4c(sc3n(CC(=O)c3ccc(Br)cc3)c2=O)CCC4)cc1 | -13% | -13%
86 | Cn1c(N)c(C(=O)COC(=O)[C@@H]2CCCN2S(=O)(=O)c2ccc(Cl)cc2)c(=O)n(C)c1=O | i | 2%
87 | C=CCOC(=O)C(C#N)c1nc2ccccc2nc1N1CCN(Cc2ccc3c(c2)OCO3)CC1 (stereo not given) | / | ?
88 | O=C(COC(=O)Cn1nc(-c2ccccc2)oc1=O)Nc1ccc(F)cc1 | -19% | -12%
89 | O=C(COC(=O)c1ccccc1Br)NC1CCCC1 | -6% | -1%
90 | Cc1nc(Cl)nc(N(C)c2ccccc2)c1[N+](=O)[O-] | i | 0%
91 | CCOc1ccc(N(CC)S(=O)(=O)c2c(C)[nH]c(=O)[nH]c2=O)cc1 | i | 1%
92 | Cc1cc(OCC(=O)OCC(=O)N(Cc2ccccc2)C(C)(C)C)ccc1Cl | -1% | -10%
93 | CCCCNC(=O)C1c2ccccc2OCC(=O)N1CCOC (stereo not given) | 38%[activator] | 9%
94 | O=C(NN1C(=O)C2C3C=CC(C3)C2C1=O)c1ccco1 (stereo not given) | -19% | -3%
95 | COc1ccc(NC(=O)c2cc(S(=O)(=O)NCCC3=CCCCC3)ccc2F)cc1 | ? | -30%
96 | COc1ccc(NC(=O)CSCc2cc(=O)n3ccsc3n2)cc1 | 13%[7.34 µM] | 32%[activator][7.34 µM]
97 | Cc1cccc(NC(=O)COC(=O)c2ccc(S(=O)(=O)N3CCCC3)cc2)c1 | i | -15%
98 | O=C(Nc1ccccc1C(=O)NCCN1CCOCC1)c1ccco1 | -9% | -4%
99 | COc1cccc(C(=O)Nc2cc(-c3ccccc3)no2)c1 | -3% | -5%
100 | COc1ccc(NC(=O)NNC(=O)COc2ccc3ccccc3c2)cc1 | -2% | -2%
101 | CCOC(=O)C1(C)CCCN(C(=O)c2ccc(OC)c(OC)c2)C1 (stereo not given) | 6% | 1%
102 | Cc1ccc(Sc2ccc(/C=N/O)cc2[N+](=O)[O-])cc1 | ? | ?
103 | Cc1ccc(C)c(NC(=O)Cn2cc(S(=O)(=O)N3CCCC3)c(S(=O)(=O)N3CCCC3)c2)c1 | -7% | -9%
104 | Cc1ccc2cc3c(NC(=O)c4ccco4)nn(C)c3nc2c1 | -11% | -23%
105 | Cc1cccc(C(=O)N(Cc2ccco2)c2c(N)n(Cc3ccccc3)c(=O)[nH]c2=O)c1 | -22% | -12%
106 | CCOc1ccc(CNC(=O)CSc2cc(=O)n(CC)c3ccccc23)cc1 | -6% | 0%
107 | NS(=O)(=O)c1ccc(CCNS(=O)(=O)c2cccc(C(=O)O)c2)cc1 | -12% | 0%
108 | CCCN(C(=O)C(NC(=O)c1ccccc1)C(C)C)c1c(N)n(Cc2ccccc2)c(=O)[nH]c1=O (stereo not given) | -15% | -12%
109 | CSc1ncc(Cl)c(C(=O)O)n1 (tested in a mixture with another compound) | / | -18%
110 | COc1ccc(OC)c(S(=O)(=O)n2ccc(C)n2)c1 | i | -7%
111 | O=C1NC[C@H](Cc2ccccc2)N(C[C@@H]2CCCN2C[C@H](Cc2ccc(O)cc2)N2C[C@H](Cc3ccccc3)N(CCc3ccccc3)C(=O)C2=O)C1=O | -11% | -13%
